Mtb MbtI inh = MbtI salicylate synthase inhibition. P9WFX0. purified MbtI enzyme, fluorescence intensity read-out. inhibition, %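 (about 17 µg/mL by stock and volumes)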. hit rate 0.89% among 100,000. AID 493033;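 active means above 50% in both replicates, above 80% if mildly self-fluorescent; inactive means the rest, strongly fluorescent compounds included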;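 further: 0% = mean of negative and 100% = mean of positive controls; one replicate is shown; some compounds called inactive have numbers as strong as hits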
Target sequence (P9WFX0 whole entry, looked up): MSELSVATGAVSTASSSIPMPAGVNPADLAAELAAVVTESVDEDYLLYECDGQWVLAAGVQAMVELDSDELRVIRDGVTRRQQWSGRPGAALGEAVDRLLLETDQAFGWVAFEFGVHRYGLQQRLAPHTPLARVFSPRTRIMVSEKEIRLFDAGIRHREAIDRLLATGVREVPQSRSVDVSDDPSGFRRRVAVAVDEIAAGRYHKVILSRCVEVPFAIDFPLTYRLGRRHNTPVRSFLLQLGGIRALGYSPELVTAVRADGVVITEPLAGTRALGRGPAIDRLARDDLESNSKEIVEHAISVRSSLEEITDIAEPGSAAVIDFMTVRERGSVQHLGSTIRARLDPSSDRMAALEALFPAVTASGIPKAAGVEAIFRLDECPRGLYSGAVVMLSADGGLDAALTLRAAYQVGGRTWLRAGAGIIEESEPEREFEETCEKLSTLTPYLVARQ
Mtb MenB inh = inhibitors of Mycobacterium tuberculosis MenB enzyme | P9WNP5 | MenB enzyme assay, absorbance read-out; some hits fall short of the stated cut | inhibition, %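 (about 12 µg/mL by stock and volumes)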 | hit rate 0.43% among 100,000;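 active means mean of two replicates above 30%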;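 further: 0% = no compound and 100% = wells with inactive enzyme; the first replicate is given; strong numbers were not always called active; inactives centre near -10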
Target sequence (P9WNP5 whole entry, looked up): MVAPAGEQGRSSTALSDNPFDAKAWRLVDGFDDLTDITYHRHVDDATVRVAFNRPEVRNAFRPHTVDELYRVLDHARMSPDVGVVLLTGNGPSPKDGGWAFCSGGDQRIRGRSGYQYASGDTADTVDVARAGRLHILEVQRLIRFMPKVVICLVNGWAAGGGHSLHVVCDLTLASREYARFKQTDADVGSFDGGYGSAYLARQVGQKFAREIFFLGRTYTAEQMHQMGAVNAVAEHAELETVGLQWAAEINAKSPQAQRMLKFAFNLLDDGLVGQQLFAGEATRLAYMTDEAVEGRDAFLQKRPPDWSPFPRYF
Polio RdRp inh = inhibitors of poliovirus RNA polymerase binding and polymerization | poliovirus polymerase elongation, fluorescence polarization; stronger effect = lower value | % elongation, % (compound at 16.7 µg/mL) | hit rate 0.66% among 150,000; in the data active means % elongation below about 90%; further: some results filed as inactive read as strong as hits
Polio RdRp inh intensity = also measured in Polio RdRp inh; calls as there; % elongation; measured here: total intensity read-out; formula for this scale not given here;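 total fluorescence in place of polarization; lower means less elongation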
The depositor's hits bear a star; nt = no result given; & = joins results of further samples. Rows were taken by chance (roughly 1.8% active in at least one column).

SMILES	Mtb MbtI inh	Mtb MenB inh	Polio RdRp inh	Polio RdRp inh intensity
O=C(O)CSc1ccc2nnc(-c3cccnc3)n2n1	12	9	100	107
O=C(Nc1cnn(C23CC4CC(CC(C4)C2)C3)c1)c1cc(-c2ccccc2F)no1	-7	-23	104	101
CC(=O)Nc1c(=O)[nH]n2c(C)cc(C)nc12	-4	nt	102	102
CCNC(=O)C(C)Oc1ccc(Cl)c(C)c1 (configuration not stated)	-8	3	98	100
O=C1NC(=O)C(=Cc2ccc(N3CCOCC3)cc2)C(=O)N1	3	-38	100	99
O=C(NN=C1CCCC1)c1cc(-c2ccccc2)n[nH]1	3	-43	103	98
Cc1ccc(C(=O)NCC2CCCO2)o1 (configuration not stated)	nt	3	107	107
O=S(=O)(c1ccc(Oc2ccc3ccccc3c2)nc1)N1CCOCC1	-4	-11	103	107
COc1ccc(OC)c(-c2cc(C(=O)NCCCn3ccnc3)no2)c1	-11	-2	103	103
CCS(=O)(=O)c1ccc2oc(=S)n(CN(C)C3CCCCC3)c2c1	19	-40	104	106
O=C(NCC1CCCO1)Nc1c[nH]c2c(Cl)cccc2c1=O (configuration not stated)	90	5	102	100
CCOC(=O)N(c1ccccc1)S(=O)(=O)c1ccc(Cl)cc1	nt	-13	105	113
N#Cc1ccc(S(=O)(=O)NC2CCCCNC2=O)cc1 (configuration not stated)	4	8	101	103
COc1ccc2oc(C(=O)N3CCN(S(=O)(=O)c4ccc5c(c4)OCCO5)CC3)c(C)c2c1	36	-24	105	100
CC(=O)Nc1ccc(Nc2c3c(c(C#N)c4nc5ccccc5n24)CCCC3)cc1	-23	-10	102	103
O=C(c1cc(F)cc(F)c1)N1CC=C(c2ccccc2)CC1	-4	-14	103	110
CCCCCCCCCCCCCCCCOCC(CO)OC(C)=O (configuration not stated)	-23	3	102&101	103&101
O=C(CSc1nc2ccccc2o1)OCC(=O)N1c2ccccc2Sc2ccccc21	nt	-4	101	107
O=S(=O)(NNc1cnc2ccccc2n1)c1ccccc1C(F)(F)F	6	-13	102	96
O=C(O)C(c1ccccc1)c1cn2cc(Cl)ccc2n1 (configuration not stated)	-19	nt	103	102
C=CCn1c(SCc2cc3ccc(C)cc3nc2Cl)nnc1-c1ccoc1C	16	-28	97	82
O=C(O)COc1ccccc1	0	-14	102	99
Cc1ccc(Cn2c(C)c(CNCc3ccco3)c(C(=O)O)c2C)cc1	3	-5	101	98
N#C/C=C(\c1ccc(F)cc1)N1CCOCC1	12	7	nt	nt
Cc1ccsc1C=Nc1ccccc1N1CCCCC1	2	-3	107	109
COc1ccc(-c2c(C)nn3c(N4CC(C)CC(C)C4)cc(C)nc23)cc1OC (configuration not stated)	-5	-35	101	106
Cc1c(C(=O)NCc2ccco2)oc2c1C(=O)CCC2	-12	-4	102	102
C=C1c2ccccc2NC(=S)N1Cc1ccc2c(c1)OCO2	11	-41	104	104
OC1CCN(C(=S)Nc2ccc(Nc3ccccc3)cc2)CC1	-32	-28	105	105
CCCCCCCC/C=C\C/C=C\C/C=C\CCCC(=O)NCCO	-16	-3	100&98	105&104
CC1CC(C)N(C(=O)CSc2nc3c(c(C(F)(F)F)n2)CCc2ccccc2-3)C(C)C1 (configuration not stated)	1	9	105	98
OC(COC1CCCCC1)CN1CCCCC1 (configuration not stated)	-2	-23	101	98
COc1ccc(-n2cccc2/C=C2/C(=N)N3C(c4ccccc4)=CSC3=NC2=O)cc1	-14	-7	93	132
Cc1ccc(CN(C)C(=O)c2ccccc2OCCOc2ccccc2)o1	89	0	102	96
CN(C1CCCCC1)S(=O)(=O)c1ccc(Cl)c(C(=O)NCCc2ccccn2)c1	3	-16	101	95
CC1CN(C(=O)CCC(=O)NCc2ccccc2)c2ccccc2O1 (configuration not stated)	-19	-5	103	103
O=C(CCn1nc(-c2ccccc2)ccc1=O)N1CCOCC1	16	-4	100	96
CC(C)(C)OC(=O)N1CCc2nc(N3CCCCC3)ncc2C1	0	10	99	102
O=C(c1cc2c(=O)oc3ccccc3c2s1)N(Cc1cccs1)C1CCCC1	-10	13	102	103
CCc1ccc(NC(=O)c2cc3c(=O)n(C)c4ccccc4c3s2)cc1	-4	-18	101	100

Just Polio RdRp inh intensity and Mtb MbtI inh, for 4 of the compounds above:
Molecule | Polio RdRp inh intensity | Mtb MbtI inh
O=C(CCn1nc(-c2ccccc2)ccc1=O)N1CCOCC1 | 96 | 16
CC(C)(C)OC(=O)N1CCc2nc(N3CCCCC3)ncc2C1 | 102 | 0
O=C(c1cc2c(=O)oc3ccccc3c2s1)N(Cc1cccs1)C1CCCC1 | 103 | -10
CCc1ccc(NC(=O)c2cc3c(=O)n(C)c4ccccc4c3s2)cc1 | 100 | -4

Later entries
SMILES	Mtb MbtI inh	Mtb MenB inh	Polio RdRp inh	Polio RdRp inh intensity
CCOC(=O)COc1ccccc1O	-7	nt	104	106
CSc1sc(-c2ccn(C(=O)Nc3ccccc3)n2)c2c1C(=O)CC(C)(C)C2	0	-16	98	97
COC(F)(C(=O)N1CCOCC1)C(F)(F)F (configuration not stated)	-7	-3	102	104
COC(=O)/C(C#N)=C/c1cccc(OC)c1	55	9	102	96
N#CC(Nc1cc(C(F)(F)F)cc(C(F)(F)F)c1)c1ccccc1 (configuration not stated)	-4	-22	107	112
NS(=O)(=O)c1ccc(NC(=O)CN2C(=O)c3ccccc3C2=O)cc1	20	2	100	99
COc1ccc(-c2nc(SCCC(=O)O)n[nH]2)cc1	10	10	102	103
O=C(c1ccc2c(c1)OCCCO2)N1CCOCC1	-8	10	104	111
O=C(COC(=O)Cn1cnc2ccccc21)NCc1ccccc1	-14	6	109	105
Cc1nc2nc3[nH]c4ccccc4c3nn2n1	4	-3	103	102
CC1CN(C(=O)c2cc(S(=O)(=O)N3CCCC3)ccc2Cl)CC(C)O1 (configuration not stated)	2	-14	101	103
Cc1ccc2[nH]c(O)c(N=NC(=O)c3cccc(O)c3)c2c1	3	-259	98	100
CN1CCC(NC(=O)CCCc2ccccc2)CC1	-13	-8	100	103
O=c1[nH]n(CC2COC(c3ccccc3)O2)c(=O)c2ccccc12 (configuration not stated)	-26	-14	104	101
Cc1nc2ccccc2c2c1C(=O)N(C1CCCCCCC1)C2=O	-6	8	103	104
Cc1ccc(C(=O)OCC(=O)c2cc(C)n(CC3COc4ccccc4O3)c2C)s1 (configuration not stated)	10	10	nt	nt
COC(=O)C1=C(N)Oc2c(oc(CO)cc2=O)C1c1ccccc1 (configuration not stated)	-6	-6	101	103
CCOC(=O)c1cc2ccccc2[nH]c1=O	-5	-24	102	103
CCOC(=O)C1CCN(S(=O)(=O)c2cnc[nH]2)CC1	-31	-9	100	102
Cc1nc2ccccc2cc1C(N)=O	nt	-1	106	110

Ordered by molecular weight (lowest first): 3 of the compounds above
SMILES	Mtb MbtI inh	Mtb MenB inh	Polio RdRp inh	Polio RdRp inh intensity
CCNC(=O)C(C)Oc1ccc(Cl)c(C)c1 (configuration not stated)	-8	3	98	100
CN1CCC(NC(=O)CCCc2ccccc2)CC1	-13	-8	100	103
O=C(Nc1cnn(C23CC4CC(CC(C4)C2)C3)c1)c1cc(-c2ccccc2F)no1	-7	-23	104	101

Reprinted from above (seven entries):
SMILES	Mtb MbtI inh	Mtb MenB inh	Polio RdRp inh	Polio RdRp inh intensity
O=c1[nH]n(CC2COC(c3ccccc3)O2)c(=O)c2ccccc12 (configuration not stated)	-26	-14	104	101
Cc1nc2ccccc2c2c1C(=O)N(C1CCCCCCC1)C2=O	-6	8	103	104
Cc1ccc(C(=O)OCC(=O)c2cc(C)n(CC3COc4ccccc4O3)c2C)s1 (configuration not stated)	10	10	nt	nt
COC(=O)C1=C(N)Oc2c(oc(CO)cc2=O)C1c1ccccc1 (configuration not stated)	-6	-6	101	103
CCOC(=O)c1cc2ccccc2[nH]c1=O	-5	-24	102	103
CCOC(=O)C1CCN(S(=O)(=O)c2cnc[nH]2)CC1	-31	-9	100	102
Cc1nc2ccccc2cc1C(N)=O	nt	-1	106	110

Other entries follow:
SMILES	Mtb MbtI inh	Mtb MenB inh	Polio RdRp inh	Polio RdRp inh intensity
COc1ccc(-c2cc(-c3nc(-c4cccnc4)no3)[nH]n2)cc1	-11	9	100	102
COc1ccc(/C=C/C#N)cc1	nt	-18	100	102
CC(=O)NCC(c1ccccc1)c1ccccc1	nt	10	100	100
C[C@@H]1[C@@H](c2ccc(F)c(Br)c2)N2C=Cc3ccccc3[C@@H]2C1(C#N)C#N	nt	-11	100	102
CCCCNc1ncc2cc3ccccc3nc2c1C#N	-8	-17	97	112
COC(=O)n1c(=O)oc2cc(Cl)ccc21	-8	2	99	100
CCCN(CCC)CCCn1cnc2c([nH]c3ccc(F)cc32)c1=O	73	-12	103	103
COc1ccccc1OCC(=O)NC1CCCCC1	nt	-3	102	100
c1ccc2c(c1)NC(c1ccc3c(c1)OCCO3)n1cccc1-2 (configuration not stated)	29	-4	102	96
Cc1cc(C)n(C(=O)c2cccs2)n1	1	5	103	102
O=C(CCCSc1nc2ccccc2s1)N1CCN(c2ncccn2)CC1	3	-26	105	104
CC(C)N1C(=O)CSC1c1ccccc1 (configuration not stated)	5	-7	100	102
CC(=O)ON1C(c2ccccc2)[N+]([O-])=C(c2ccccc2)C1(C)C (configuration not stated)	-3	20	102	104
Clc1ccc(-c2cnc3ccccc3n2)cc1	5	-6	104	100
N/C(=N\OC(=O)CN1C(=O)c2ccccc2C1=O)c1ccccn1	-11	-1	99	103
O=C(CC1COc2ccccc2O1)Oc1ccccc1 (configuration not stated)	-4	nt	103	95
CCOc1ccc(C2CNC(=O)C2)cc1 (configuration not stated)	-3	-85	103	104
CCNC(=O)c1cc2c(=O)n3ccccc3nc2nc1NCCCN1CCOCC1	89	-146	100	100
Cn1c(=O)n(C)c2cc(CNc3ccc(N4CCOCC4)c(C(=O)O)c3)ccc21	-12	-12	99	99
Cc1cc(=O)oc2c3c(ccc12)OCN(CCc1ccccc1)C3	117	3	101	103
Cc1ccc(-c2csc3ncnc(NCCC(=O)O)c23)cc1	-223	-17	106	109
C=CCN1C(=O)CN=C1Nc1ccccc1	-8	-18	103	105
O=C(Cn1c(C(=O)NCc2ccco2)cc2sccc21)c1ccccc1	12	24*	104	103
O=C(CCn1nnc2ccccc21)N1CCC(O)(c2cccc(F)c2)CC1	-5	-9	99	100
Cc1cccc(-c2n[nH]c(=S)n2CC(N)=O)c1	71	2	104	97
CCCS(=O)(=O)N1CCn2cccc2C1c1ccc(Cl)cc1Cl (configuration not stated)	-4	-8	108	108
Oc1ccccc1CNC1CCCCC1	-23	-1	100	103
Cc1oc2ncn(C)c(=O)c2c1C(=O)N1CCc2ccccc21	-34	-18	102	105
CCN(CC)S(=O)(=O)c1ccc(S(=O)(=O)Nc2cc(Cl)ccc2OC)cc1	-9	-9	107	109
Cc1n[nH]c(=O)c2c(NC(=O)COC(=O)/C=C/c3ccc4c(c3)OCO4)oc(C)c12	15	3	100	99
O=C(NC1CCCCC1)N1c2ccccc2CCc2ccccc21	-3	-19	103	104
CCOC(=O)c1c(C)[nH]c(C(=O)O)c1C	nt	-2	109	106
O=C(CC1CC2CCC1C2)NCc1cccs1 (configuration not stated)	nt	-27	103	103
CCCCCC1CC(CC(C)C(=O)Nc2nncs2)C(=O)O1 (configuration not stated)	-3	11	100	102
CSc1ccc(Cl)c(C(=O)OC(C)C(N)=O)c1 (configuration not stated)	-2	-26	105	106
CCCCc1ccc2nc(NC(=O)c3ccco3)sc2c1	20	-19	102	99
O=S(=O)(NCc1ccccc1)c1ccc(S(=O)(=O)N2CCCCCC2)cc1	-24	3	101	110
CC(C)(C)c1ccc(OCCn2c(=O)oc3ccccc32)cc1	0	5	99	102
O=C(CNC(=O)C12CC3CC(CC(C3)C1)C2)N1CCN(S(=O)(=O)c2ccc(Cl)cc2)CC1	-7	-4	107	110
Cc1cc(=O)[nH]c(SCc2cc(=O)n3nc(SCC(C)C)sc3n2)n1	10	-3	100	103
O=C(Nc1ccccc1)OCC(F)(F)F	-1	nt	102	103
CSc1ccccc1NC(=O)c1noc2c1CC(C(C)(C)C)CC2 (configuration not stated)	2	-26	104	103
Cc1nnc(Sc2nc3ccc(Cl)cc3s2)n1-c1ccc2c(c1)OCCO2	-1	-13	100	106
COc1ccc(NC(=O)COC(=O)Cc2cccc(C(F)(F)F)c2)cc1	-6	nt	102	106
O=C(/C=C/c1ccc2c(c1)OCO2)NCc1ccccc1	90	-5	102	101
COC(=O)c1cc(OC(=O)c2nc(-c3ccccc3)oc2C)cc(C(=O)OC)c1	-7	0	103	108
O=C(c1ccn(C(=O)c2ccc(Cl)cc2Cl)n1)N1CCCCC1	2	-2	103	107
O=C(O)/C(=C\c1ccccc1)c1cccs1	5	-8	101	100
CCC(C)NC(=O)c1csc2c1CCCCC2 (configuration not stated)	-1	-3	104	102
O=C(c1c(Cl)nc2sccn12)N1CCN(c2cccc(Cl)c2)CC1	-2	-5	101	102
Cc1ccc(NC(=O)COC(=O)c2cccc(C(F)(F)F)c2)cc1C	-9	nt	105	104
CN1C(=O)c2ccccc2C1O (configuration not stated)	-12	-6	104	104
O=C(CN1C(=O)c2ccccc2C1=O)Nc1ccc(S(=O)(=O)NC2=NCCCCC2)cc1	14	-8	100	94
Cc1nnc(SCC(=O)N(CC(C)C)C2CCS(=O)(=O)C2)s1 (configuration not stated)	-8	-4	104	111
CC1=C(C(=O)O)N2C(=O)[C@@H](NC(=O)[C@H](N)c3ccccc3)[C@H]2SC1	-15	2	101	103
COc1ccc(S(=O)(=O)N2CCCCC2)cc1-n1c(N)c(C#N)c2nc3ccccc3nc21	-5	-6	117	113
COC(=O)CN(c1cccc(C)c1)S(=O)(=O)c1ccccc1	-4	-6	100	103
